Vaccinia mCherry: qHTS for Stage-Specific Inhibitors of Vaccinia Orthopoxvirus: mCherry Reporter Primary qHTS. Vaccinia virus mCherry reporter infection, fluorescence; about a quarter of the inactives have no number. Potency, µM (highest dose often 36.5 µM), inactives show at the top dose activity change, negative = inhibition, most hits filed as inhibitors. actives 0.63% (n = 310,000); active = well fitted inhibition curve with a large enough effect; inconclusive = small, poorly fitted or top-dose-only effect; inactive = no such curve, though single readings can be large or run the other way; tested in A549 cells; note: nearly all actives have a fitted effect of over 35% in size; inactives centre near -10
Vaccinia Venus: qHTS for Stage-Specific Inhibitors of Vaccinia Orthopoxvirus: Venus Reporter Primary qHTS; Vaccinia virus Venus reporter expression, fluorescence; Potency, µM (titrated, usually from 36.5 µM), without a hit: at the highest dose activity change, negative = inhibition, most hits filed as inhibitors; actives 0.46% (n = 330,000); active means well fitted inhibition curve with a large enough effect; inconclusive means small, poorly fitted or top-dose-only effect; inactive means no such curve, though single readings can be large or run the other way; tested in A549 cells; note: nearly all actives have a fitted effect of over 30% in size; inactives centre near -10
Starred values were filed as active, the others as inactive; i = inactive; ? = inconclusive; . = no result given; [ ] = remark or other dose. % is set by controls: 0 for no effect and ±100 for the full control effect; potency is the fitted concentration of half-maximal effect.

Structure | Vaccinia Venus | Vaccinia mCherry
COc1cccc(C(=O)Nc2nnc(Cc3ccc(OC)c(OC)c3)s2)c1 | 12.5% | i
COc1ccc(-c2cc(-c3ccccc3)nc3ncnn23)cc1 | -18.4% | -0.3%
Cc1ccc(S(=O)(=O)N2CCC(C(=O)N/N=C/c3ccncc3)CC2)cc1 | -17.0% | -5.6%
Cc1ccc(NC(=S)Nc2cccc(-c3n[nH]c(=S)o3)c2)cc1 | 24.5% | 10.9%
O=C(Oc1ccc(OC(=O)c2ccco2)c(S(=O)(=O)c2ccc(Cl)cc2)c1)c1ccco1 | -23.2% | -24.3%
Cc1ccc(S(=O)(=O)NCC(=O)NCC(=O)N2CCN(c3ncccn3)CC2)cc1C | -19.5% | -13.3%
O=C(COC(=O)c1nc(Cl)ccc1Cl)NCc1ccccc1 | 1.5% | -2.2%
Cc1ccc2c(c1)N(CC(=O)NCc1ccccc1Br)C(=O)c1cccnc1O2 | -17.8% | i
COc1ccc(C(=O)OCN2C(=O)c3ccccc3C2=O)cc1 | -3.6% | i
COc1cc2cc(c1Cl)N(C)C(=O)CC(OC(=O)C(C)N(C)C(C)=O)C1(C)OC1C(C)C1CC(O)(NC(=O)O1)C(OC)C=CC=C(C)C2 (stereo not given) | -33.8% | ?
NC(=O)CC(NC(=O)Cc1cccc2ccccc12)c1ccc(NCCCN2CCCC2=O)c([N+](=O)[O-])c1 (stereo not given) | -8.4% | i
C=CCNC(=O)CN1C(=O)CSc2ccc(S(=O)(=O)N3CCOCC3)cc21 | -16.2% | i

Following part.
Structure | Vaccinia Venus | Vaccinia mCherry
CCN1CCN(c2ncnc3c2sc(=S)n3-c2ccccc2)CC1 | -5.6% | 4.2%
CCCc1cc(=O)oc2cc(OCC(=O)N3CCC(C(=O)O)(c4ccccc4)CC3)ccc12 | 11.1% | 7.3%
O=C1NC(Cc2ccc(O)cc2)c2nc3cc(Cl)ccc3c(=O)n2-c2ncccc21 (stereo not given) | -13.7% | i
COc1cccc(-c2ccc(NC(=O)C3CCCN(Cc4cnc(C)s4)C3)cc2)c1 (stereo not given) | ? | -23.8%
CN(c1ccccc1)S(=O)(=O)c1ccc(C(=O)NCc2ccccc2CN2CCCC2)cc1 | -10.1% | -16.3%
Cc1ccc(NC(=O)c2cccnc2)cc1S(=O)(=O)N1CCOCC1 | -4.9% | i
O=C(CCc1ccccc1)Oc1ccccc1[N+](=O)[O-] | -15.4% | -4.4%
Cc1cc2c(cc1C)N1C(=O)c3cc4ccccc4cc3NC(=O)C1C(=O)N2 (stereo not given) | -10.4% | 11.5%
O=C(NCCN1C(=O)CCC1=O)c1ccncc1 | -14.3% | .
CCOC(=O)C1=CC[C@@H](c2ccccc2)N(S(=O)(=O)c2ccc(C)cc2)[C@H]1c1ccc(C#N)cc1 | -14.8% | i
O=C1CN(O)C=C2N=c3ccccc3=C2N1c1ccc([N+](=O)[O-])cc1 | -8.5% | -1.4%
CCC(C)NC(=O)CSc1c2c(nc3cc(Cl)ccc13)CCCC2 (stereo not given) | -8.7% | 1.1%

Remaining list, next part
Structure | Vaccinia Venus | Vaccinia mCherry
Cn1nnnc1SCC(=O)NC(=O)Cc1ccccc1 | -9.7% | -16.4%
COc1ccc2oc(C(=O)NC(C)(C)C)c(C)c2c1 | -11.1% | -13.8%
CC(=O)Nc1ccc(S(=O)(=O)Nc2nc3ccccc3nc2Nc2ccc(S(N)(=O)=O)cc2)cc1 | -1.7% | i
O=c1[nH]c(C(F)(F)F)nc2ccc3ccccc3c12 | 8.7% | -8.9%
Cc1cc(C)c(S(=O)(=O)N/N=C/c2ccc([N+](=O)[O-])o2)c(C)c1 | -1.8% | -16.2%
Cc1ccc(NC=C(S(=O)(=O)c2ccccc2)S(=O)(=O)c2ccccc2)c(C)c1 | -17.5% | i
COc1ccc2nc(Cl)c(C3CC(c4ccco4)=NN3C(=O)CCCC(=O)O)cc2c1 (stereo not given) | -0.9% | -0.6%
Cc1ccn2c(Nc3ccc4c(c3)OCCO4)c(-c3ccccc3O)nc2c1 | -14.0% | -17.9%
COc1cccc(C(C)(O)c2nc(-c3ccc(OC)c(OC)c3)cs2)c1 (stereo not given) | -22.2% | 3.3%
Cn1c2ccccc2c2nnc(SCc3ccc4nonc4c3)nc21 | -11.9% | -7.8%
CCCCNC(=O)C[C@@H]1C[C@@]2(C(=O)OC)CC(C)(C)CC=C2N(Cc2ccc3c(c2)OCO3)C1=O | -19.1% | -17.3%
COc1ccc(NS(=O)(=O)c2ccc3oc(Nc4ccc5c(c4)OCCO5)nc3c2)cc1 | ? | .

(further entries)
Structure | Vaccinia Venus | Vaccinia mCherry
CC(C)(C)NC(=O)NC(=O)CSc1nnc(-c2ccccc2F)n1N | -10.3% | -0.6%
Cc1ccc2nc(Cn3cc(C(F)(F)F)cc(Cl)c3=O)cc(=O)n2c1 | -19.8% | -14.5%
Cc1cc(C(=O)COC(=O)c2ccccc2Br)c(C)n1CC1CCCO1 (stereo not given) | 3.7% | -23.3%
O=C(O)CC(CC(=O)NCC(O)c1ccccc1)c1ccccc1 (stereo not given) | -6.2% | i
O=C(C1CC(=O)N(C2CCCC2)C1)N1CCN(c2ccc(F)cc2)CC1 (stereo not given) | -3.3% | i
Cc1ccc(-c2cc(C(F)(F)F)n3ncc(C(=O)NCc4ccco4)c3n2)cc1 | -0.3% | .
O=c1[nH]c(=O)n(-c2cccc(Cl)c2)c(O)c1/C=N/c1ccccn1 | -1.9% | .
CC(C)CC1NC(=O)N(CC(=O)N2c3ccccc3NC(=O)C2(C)C)C1=O (stereo not given) | -4.5% | i
O=C(NCc1ccco1)c1ccc2c(c1)N(Cc1ccccc1F)C(=O)c1ccccc1S2=O (stereo not given) | -17.2% | -17.7%
CCN(CC)C(=O)c1cccc(-c2csc(C(C)(O)c3ccncc3)n2)c1 (stereo not given) | -23.0% | 1.3%
CC(C)CC1(CCc2ccccc2)C(=O)NC(=O)NC1=O | -8.5% | i
C[C@@H]1CN([C@H](C)CO)C(=O)CCCn2nncc2CO[C@@H]1CN(C)C(=O)c1ccc(N2CCN(C)CC2)cc1 | 7.0% | 5.8%

Gathered by group, those above containing a nitro group on carbon.
Structure | Vaccinia Venus | Vaccinia mCherry
NC(=O)CC(NC(=O)Cc1cccc2ccccc12)c1ccc(NCCCN2CCCC2=O)c([N+](=O)[O-])c1 (stereo not given) | -8.4% | i
O=C(CCc1ccccc1)Oc1ccccc1[N+](=O)[O-] | -15.4% | -4.4%
O=C1CN(O)C=C2N=c3ccccc3=C2N1c1ccc([N+](=O)[O-])cc1 | -8.5% | -1.4%
Cc1cc(C)c(S(=O)(=O)N/N=C/c2ccc([N+](=O)[O-])o2)c(C)c1 | -1.8% | -16.2%

Next part.
Structure | Vaccinia Venus | Vaccinia mCherry
Cc1cccc(N/N=C/c2ccccc2O)c1 | -15.0% | -24.6%
COc1ccc2[nH]c3c(=O)n(Cc4ccc(C(=O)NCC5CCCO5)cc4)c(=S)[nH]c3c2c1 (stereo not given) | -9.7% | -0.1%
O=C(N/N=C/c1cccc(O)c1)NC1CCCCC1 | -16.1% | -13.6%
Cc1cccc(CNC(=O)CCCN2C(=O)COc3ccc(C)cc32)c1 | -23.5% | -15.9%
CC(=O)c1cccc(NC(=O)c2cccn(Cc3cccc(C)c3)c2=O)c1 | -15.9% | -14.1%
CCCn1c2ccccc2c2nnc(SCC(=O)Nc3cccc(C(C)=O)c3)nc21 | ? | ?
CCOCCCNC(=O)CN1C(=O)CCn2nc(-c3cccn3C)cc21 | 8.8% | -3.6%
CCOC(=O)[C@@H]1[C@H]2COc3cc(OC)ccc3[C@@H]2N2C(=O)N(c3cccc(F)c3)C(=O)[C@@]12C | -8.8% | -2.8%
N#CCCN1C(=O)C2(OCCO2)c2ccccc21 | -10.9% | -10.3%
COc1ccc(S(=O)(=O)N2CCOC2CNC(=O)C(=O)NCc2ccccn2)cc1 (stereo not given) | -16.3% | -13.5%
O=C(c1cc(S(=O)(=O)N2CCOCC2)ccc1Cl)N1CCC(Cc2ccccc2)CC1 | -24.7% | -29.6%
CN(CC(=O)NCC(c1ccco1)N1CCCCC1)S(=O)(=O)c1ccc(Cl)cc1 (stereo not given) | -3.6% | -7.3%

Compound profiles, as listed above.
`O=c1[nH]c(=O)n(-c2cccc(Cl)c2)c(O)c1/C=N/c1ccccn1` in the list: Vaccinia Venus = -1.9%; Vaccinia mCherry = .
`O=C(Oc1ccc(OC(=O)c2ccco2)c(S(=O)(=O)c2ccc(Cl)cc2)c1)c1ccco1` in the list: Vaccinia Venus = -23.2%; Vaccinia mCherry = -24.3%

The list goes on:
Structure | Vaccinia Venus | Vaccinia mCherry
CCOc1ccc(CCNC(=O)C2CCN(c3nnc(-n4cccc4)s3)CC2)cc1OCC | -27.9% | .
CCCNC(=O)c1cnc(-c2ccccc2)nc1-c1ccccc1 | -17.2% | -22.0%
Cc1ccc(C(=O)N2CCc3cc(CNC(=O)c4ccc(Br)cc4)ccc32)cc1 | -22.4% | -5.9%
CC(C)C(=O)N1CCN(c2ccccc2NC(=O)c2ccco2)CC1 | -2.3% | -11.3%
Cc1cc(C)nc(SCC(=O)N/N=C/c2cc(C)n(-c3ccccc3C)c2C)n1 | -13.7% | -2.5%
Cc1[nH]c2ccccc2c1C(c1ccncc1)N1CCCCC1 (stereo not given) | -8.3% | -0.1%
C=CC[C@@H](CC(=O)N[C@H](CO)Cc1ccccc1)C(=O)N[C@@H](COC(=O)[C@H](CC=C)CC(=O)OC(C)(C)C)Cc1ccccc1 | ? | -3.9%
CC1CCN(CC(=O)Nc2nccs2)CC1 | -11.4% | i
O=C(NC1CCCCCCC1)C1CCCN(S(=O)(=O)c2cnc[nH]2)C1 (stereo not given) | -5.6% | i
COc1ccccc1CNc1nc(NCc2ccccc2SC)c2sccc2n1 | ? | ?
CCC(=O)N1CCC(C)(C(=O)NCc2cccc(OC)c2)C1 (stereo not given) | -4.0% | 7.9%
COC(=O)Cn1c(=O)c2c(nc3n2CCN3c2ccc(F)cc2)n(C)c1=O | -12.7% | -10.5%

Next section
Structure | Vaccinia Venus | Vaccinia mCherry
O=C(Nc1cccc(C(=O)N2CCCCC2)c1)c1nsc2ccccc12 | -24.0% | -12.0%
Cc1cc(NC(=O)COc2ccc3c(C)c(C)c(=O)oc3c2)no1 | -10.4% | i
O=C(COc1ccc2c(c1)CCC2)Nc1ccccn1 | -3.0% | -17.8%
COC(=O)c1ccc(NC(=O)c2nn(C)c3c2CS(=O)(=O)c2ccccc2-3)cc1 | -17.2% | -13.0%
Cc1ccccc1NC(NC(=O)c1cccs1)C(Cl)(Cl)Cl (stereo not given) | ? | .
COc1ccc(Cl)cc1NC(=O)Cn1cc(S(=O)(=O)Cc2cccc(Cl)c2)c2ccccc21 | -16.7% | -2.1%
CCOC(=O)C1=NNC(C(=O)c2ccccc2)C1c1ccc(Cl)cc1 (stereo not given) | -5.8% | -26.0%
Cn1c(=O)oc2cc(S(=O)(=O)NCc3cccnc3)ccc21 | -0.2% | ?
Cc1cc(=O)n2c3ccccc3n(C)c2n1 | -6.3% | -7.5%
COc1cc(C(=O)Nc2nc3ccc(C)cc3s2)ccc1OCc1c(C)noc1C | -2.6% | -8.2%
CSc1ncccc1C(=O)OCC(=O)Nc1nc(C)c(Cl)cc1Cl | -15.8% | -10.6%
CC(C)Nc1nc(Nc2ccc(C(N)=O)cc2)c2sccc2n1 | -29.8% | -24.0%

More records:
Structure | Vaccinia Venus | Vaccinia mCherry
COc1ccc(CNC(=O)CS(=O)(=O)Cc2nc(-c3ccc(OC)cc3)oc2C)cc1 | -3.5% | i
CC(C)(C)NC(=O)NC(=O)CN1CCN(S(=O)(=O)/C=C/c2ccccc2)CC1 | -11.7% | -7.6%
CCOc1ccc(NC(=O)c2nc(S(=O)(=O)Cc3ccccc3F)ncc2Cl)cc1 | ? | ?
CC(C)Nc1nc(NCCN2CCCC2)c2sc(-c3ccccc3)cc2n1 | -25.7% | 1.5%
Cc1ccc2onc(CC(=O)N3CCN(c4ccc(F)cc4)CC3)c2c1 | -13.7% | -5.1%
O=C1CC[C@@]2(O)[C@H]3Cc4ccc(O)c5c4[C@@]2(CCN3CC2CC2)[C@H]1O5 | -8.0% | i
Cc1c(NC(=S)Nc2cccc(Cl)c2)c(=O)n(-c2ccccc2)n1C | 3.6% | i
CCOC(=O)c1ccc(NC2c3ccccc3C(=O)N2c2cccnc2)cc1 (stereo not given) | -15.2% | -10.5%
CCc1nnc2c(Nc3cccc(C(C)=O)c3)nc3ccccc3n12 | -11.9% | -17.2%
COc1ccc(CNC[C@H]2O[C@@H](n3ccc(=O)[nH]c3=O)[C@H](O)[C@@H]2O)cc1 | -12.3% | 1.5%
CC(=O)c1c(C)[nH]c(C(=O)OCC(=O)N(C)c2c(N)n(Cc3ccccc3)c(=O)[nH]c2=O)c1C | -6.3% | i
Cc1cc(C)nc(SCCC(=O)Nc2ccccc2Cl)n1 | -5.6% | -9.8%

Later entries
Structure | Vaccinia Venus | Vaccinia mCherry
COc1ccc(C(=O)N2CCC(C(=O)Nc3cccc(C)c3)CC2)cc1OC | -9.6% | -10.9%
CCO[C@H]1OC(C(=O)N2CCN(C)CC2)=C[C@@H](c2ccc(Br)cc2)[C@@H]1CCCO | -7.4% | 5.7%
Nc1cc(=O)[nH]c2nnc(SCC(=O)Nc3cccc4ccccc34)n12 | -2.3% | -2.2%
c1ccc(C2OCCN2c2ccccc2)cc1 (stereo not given) | -5.3% | -10.9%
CCCCCCn1c(=O)c(F)cn(Cc2ccc(OC)c([N+](=O)[O-])c2)c1=O | -28.7% | -10.0%[1.46 µM]
